# CtBP-E1A inh: blocks the CtBP interaction with E1A; 340,000 tested, 0.49% active; AID 651724; activity change, % (no concentration beside the values); AlphaScreen GST-E1A/His-CtBP binding, 1536-well; active compounds read low; control for the full effect not named in the record; in the data active means activity change below about -65%; inconclusive means about -30% to -65%; inactive means above about -30%; note: % is set by controls: 0 for no effect and ±100 for the full control effect
#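 Homogeneous bead-based format: GST-tagged E1A captured on glutathione donor beads, His-tagged CtBP on nickel acceptor beads; compounds precede bead addition by 2 h at 37 °C.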
# D2 potentiator: potentiates the human D2 dopamine receptor allosterically. P14416. DiscoveRx D2 beta-arrestin cells, luminescence, 90 min; 100% = 57 uM dopamine signal. potentiation, % (concentration not given with the values). 360,000 tested, 0.23% active; active = potentiation of 50% or more; inconclusive = 30% to 50%; inactive = 30% or less;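 note: compound concentration not given in the record; tested on top of an EC20 dose of dopamine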
# Target sequence (P14416 whole entry, looked up): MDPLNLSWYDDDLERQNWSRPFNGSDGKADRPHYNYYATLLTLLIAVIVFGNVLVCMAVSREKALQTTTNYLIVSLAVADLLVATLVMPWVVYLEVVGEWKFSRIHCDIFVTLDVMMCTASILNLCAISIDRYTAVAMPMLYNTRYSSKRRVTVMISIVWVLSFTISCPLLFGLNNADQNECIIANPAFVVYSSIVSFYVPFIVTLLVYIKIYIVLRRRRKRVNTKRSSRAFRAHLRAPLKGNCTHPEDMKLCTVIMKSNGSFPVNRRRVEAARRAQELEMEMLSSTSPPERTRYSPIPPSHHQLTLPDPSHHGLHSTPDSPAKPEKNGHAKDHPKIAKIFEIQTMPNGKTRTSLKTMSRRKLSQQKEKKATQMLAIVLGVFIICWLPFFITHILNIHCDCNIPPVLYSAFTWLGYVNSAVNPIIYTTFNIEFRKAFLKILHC
#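 PathHunter D2 cells, attached overnight at 37 deg C, received compound in DMSO plus dopamine at EC20 (50 nM final) for 90 min at 37 deg C. Beta-arrestin recruitment was read as luminescence after 1 h with detection reagent at ambient temperature.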
# D2 ag: agonists of human D2 dopamine receptor (beta-arrestin) | activation, % (test concentration not listed) | DiscoveRx PathHunter D2 beta-arrestin, luminescence, 90 min; 100% = 57 uM dopamine signal | 360,000 tested, 0.084% active; in the data active = activation above about 40%; inconclusive = about 15% to 40%; inactive = below about 15%; note: compound concentration not given in the record; the text of the record calls up to 30% inactive
#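 DiscoveRx PathHunter D2 beta-arrestin cells (2,100/well) attached overnight, then compound-stimulated 90 min at 37 C in HBSS/10 mM HEPES/0.1% Tween-20 buffer; beta-galactosidase complementation read by luminescence after 1 h at ambient temperature. Dopamine 57 uM final (EC100) as control.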
# gsp ag: gsp mutant agonism | Potency, µM (top dose mostly 76.9 µM), for inactives: top-dose activation (cAMP increase), actives largely listed as activators | gsp mutant cells, cAMP HTRF, 30 min; control for the full effect not named in the record | 340,000 tested, 0.13% active | AID 624287; active = well fitted activation curve with a large enough effect; inconclusive = small, poorly fitted or top-dose-only effect, or another doubt; inactive = no such curve, though single readings can be large or run the other way; cell line not stated here;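 note: phosphodiesterase inhibitor Ro 20-1724 added with compounds to block cAMP breakdown; potency is the fitted concentration of half-maximal effect; nearly all actives have a fitted effect of over 60% in size; about a fifth of the inactives were tested at one dose only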
#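 Cells stably selected in G418 were plated at 2000/well, grown 16-24 hr, then given compounds in DMSO with the PDE inhibitor […] (300 uM solution added) for 30 min at 37C; cAMP was read by HTRF.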
# Six1-Eya2 blk: blocks human Six1 binding to Eya2 | AID 651725 | Q15475+O00167 | 360,000 tested, 0.56% active | activity change, % (test concentration not listed) | AlphaScreen GST-Six1/His-Eya2 binding, biochemical; active compounds read low; control for the full effect not named in the record; in the data active = activity change below about -65%; inconclusive = about -30% to -65%; inactive = above about -30%; note: % is set by controls: 0 for no effect and ±100 for the full control effect
#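 GST-Six1 + His-Eya2 (5X stock: 250/500 nM); Tris pH 8.0, 300 mM NaCl, 0.05% BSA, 0.02% Tween 20; GSH donor/Ni acceptor beads; 1 h 37 °C dark; AlphaScreen readout.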
# gsp antag: gsp mutant antagonism. gsp-mutant cells, cAMP HTRF, 30 min; control for the full effect not named in the record. Potency, µM (titrated, usually from 76.9 µM), inactives show at the top dose activity change, negative = inhibition, hits mostly inhibitors. 340,000 tested, 0.4% active; active = falling curve of any shape with a large fitted effect; inconclusive = falling curve, mostly with a smaller effect; inactive = flat or rising curve; cell line not stated here;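 note: intracellular cAMP measured with PDE inhibitor Ro 20-1724 present during compound exposure; potency is the fitted concentration of half-maximal effect; % is set by controls: 0 for no effect and ±100 for the full control effect; nearly all actives have a fitted effect of over 65% in size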
#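 HTRF cAMP read-out (cAMP-d2 plus anti-cAMP antibody-K in lysis buffer, 30 min RT). Before lysis, cells are exposed to compounds with […] for 30 min at 37C in DPBS containing Ca/Mg, BSA and Tween 20.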
# The depositor's hits bear a star; ? = inconclusive; . = no result given; [ ] = another dose, or the depositor's remark.
# Below each SMILES: CtBP-E1A inh	D2 potentiator	D2 ag	gsp ag	Six1-Eya2 blk	gsp antag
O=C(N/C(=C/c1ccc(F)cc1)C(=O)N1CCCCC1)c1ccco1
 : 3	-10	-2.7	-27%	2	-6%
O=[N+]([O-])c1cccc(S(=O)(=O)Nc2ccc(-c3ccc(N4CCOCC4)nn3)cc2)c1
 : -6	-4	-4.2	-12%[15.4 µM]	-13	?
COc1cccc(C2c3[nH]c4ccccc4c3CCN2Cc2cnc(C)s2)c1OC (stereo not given)
 : -1	-1	2.9	16%[15.4 µM]	-20	-10%
Cc1cc(C)n(CC(=O)Nc2cccc(C(F)(F)F)c2)n1
 : .	-3	-4.5	-63%[inhibitor]	2	5%
Cc1cc(C)n(CC(O)COc2ccccc2C)n1 (stereo not given)
 : 2	1	-1.2	-15%[15.4 µM]	0	3%
O=C(c1ccc2c3n(nc2c1)-c1ccc(Cl)cc1CO3)N1CCOCC1
 : 2	9	-1.2	.	0	-1%
CCOC(=O)c1c(C)[nH]c(C(=O)COC(=O)[C@H](C)NC(=O)c2ccccc2Cl)c1C
 : -9	-9	2.5	-1%	-16	-6%
COC(=O)[C@@H](NS(=O)(=O)c1ccc(F)cc1Br)C(C)C
 : -11	0	-3.3	-32%[inhibitor]	-7	.
Cc1cc(C)cc(N(CC(=O)N2CCCC2)S(C)(=O)=O)c1
 : 0	-3	-2.3	1%[15.4 µM]	-3	11%
COC(=O)N/N=C/c1cccc(OCCSc2ccc(Cl)cc2)c1
 : 0	10	-9.6	3%[15.4 µM]	0	-35%
C#CCNC(=O)C1=C[C@@H](c2cn(C(C)=O)c3ccccc23)C[C@@H](OCCCCO)O1
 : -3	0	-1.1	.	0	-12%
CCn1c(C)nc2cc(NC(=O)Nc3cccc(C(C)=O)c3)ccc21
 : .	-13	1.5	6%	-1	-1%
CCOc1ccc(N(CC(=O)Nc2cc(C)ccc2C)S(=O)(=O)c2c(C)[nH]c(=O)[nH]c2=O)cc1
 : -16	-5	-2.0	-20%	?	-4%
O=C(CCc1ccccc1)Oc1ccccc1[N+](=O)[O-]
 : -16	-4	0.3	?	-14	10%
CCC(C)c1ccccc1NC(=O)C1CCCO1 (stereo not given)
 : 7	-13	-2.9	-19%	2	9%
N#Cc1c(N2CCOCC2)nsc1-c1ccc(C(F)(F)F)cc1
 : -4	-11	-4.8	102%	2	2%
CCCN1CCN(CCNC(=O)Nc2ccccc2Cl)CC1
 : 7	-15	2.3	-9%	-1	6%
CCC(C)c1ccccc1NC(=O)COc1ccc(-n2cnnn2)cc1 (stereo not given)
 : 0	-4	-0.9	3%	-1	11%
CCn1cc(C(=O)NCc2ccncc2)c(=O)c2cc(F)c(N3CCN(C(=O)c4ccco4)CC3)cc21
 : -3	-4	4.1	-3%[15.4 µM]	-5	-21%
COc1ccccc1C(=O)NNC(=O)C1CCN(C(=O)OC(C)(C)C)CC1
 : 2	-13	1.3	?	1	1%
COc1cccc(NC(=O)COc2ccccc2)c1
 : -5	-3	0.1	-7%	-1	-2%
O=C(Nc1ccc(S(=O)(=O)N2CCCC2)cc1)c1cccs1
 : 14	-10	-1.3	-7%[15.4 µM]	25	.
Cc1cc(Cn2nc(-c3ccccc3)cc2C(=O)NCc2cccc(Br)c2)on1
 : .	-9	1.4	11%	-8	1%
Nc1ccccc1SCc1ccccc1
 : .	-11	-6.6	6%	-7	10%
O=C(NCC1CCCCC1)c1ccc(F)c(S(=O)(=O)N2CCOCC2)c1
 : 0	0	5.7	-24%	6	-2%
O=C(Nc1ccn(Cc2c(F)c(F)c(F)c(F)c2F)n1)c1cccc(Cn2cc([N+](=O)[O-])cn2)c1
 : 1	4	-2.7	-9%	-2	-15%
CC(C)(C)NC(=O)c1ccc2c(c1)N(CC(=O)N1CCCC1)C(=O)C(C)(C)O2
 : -16	-3	-4.4	-14%	-3	7%
CC(NC(=O)c1ccc(OC2CCN(C(=O)c3cccnc3)CC2)cc1)C1CC1 (stereo not given)
 : 12	5	0.9	-2%	14	0%
O=C(NC1CC2CCCC(C1)N2Cc1ccc(F)cc1)c1ccc(F)cc1 (stereo not given)
 : .	-75	-8.9	?	4	4%
Cc1ccc(CN2C(=O)C[C@@H](NC(=O)OCC3c4ccccc4-c4ccccc43)C/C=C\C2c2ccc(C)cc2)cc1 (stereo not given in full)
 : 15	-3	-2.8	.	5	5%
Cc1ccc(CNC(=O)C2CCN(S(=O)(=O)c3c(C)noc3/C=C/c3ccco3)CC2)cc1
 : 1	0	-0.6	-42%[inhibitor]	-6	-6%
CCOC(=O)/C=C1\SCC(=O)N1CC(=O)Nc1cccc(F)c1
 : 4	-3	-3.6	-3%[15.4 µM]	-1	16%
Cc1cc(C)n(-c2nc3ccccc3c(=O)n2OCC(=O)OCc2ccccc2)n1
 : 2	-8	-3.6	20%	13	-4%
COCCCN(C(=O)Cc1csc(-c2cccc(Cl)c2)n1)c1c(N)n(Cc2ccccc2)c(=O)[nH]c1=O
 : 1	0	-4.4	0%[15.4 µM]	0	-13%
CC1CCN(CC(=O)Nc2cccc([N+](=O)[O-])c2)CC1
 : 2	-13	-1.6	-2%	-2	4%
O=C(N/N=C/C1=C(N2CCOCC2)C(=C\c2ccccc2)/CC1)Nc1ccccc1
 : -13	-20	-5.2	-37%[inhibitor]	-6	0%
Cc1cc(C)c(C)c(S(=O)(=O)NCC(=O)NCc2ccco2)c1C
 : 4	1	-2.4	-17%	-5	4%
O=C(COC(=O)CCc1nc2ccccc2c(=O)[nH]1)Nc1ccccc1Cl
 : 0	-5	-5.6	3%	14	6%
Cc1c(NC(=O)CCC(=O)N2CCCCC2)c(=O)n(-c2ccccc2)n1C
 : 4	10	0.8	-24%	4	-1%
Nc1nccc(NCCSCc2ccccc2)n1
 : -5	-8	0.0	?	-5	9%
O=c1[nH]ncc(N2CCCC2)c1Cl
 : 10	0	3.4	25%	2	-3%
Cc1cc(C)n(CC(=O)N/N=C/c2ccccn2)n1
 : -10	2	-0.9	32%[15.4 µM]	-15	2%
Cc1ccc(CC(=O)N2CCN(C(=O)c3ccco3)CC2)cc1
 : .	-4	4.5	-22%	2	10%
CC(C)(C)c1ccc(S(=O)(=O)N2CCNC(=O)C2)cc1
 : 3	-1	-1.5	6%	-5	-13%
COc1ccccc1-c1nnc(SCC(=O)NC2CCCCC2)o1
 : -17	-8	-3.6	-7%	10	-7%
CN1CCN(C(=S)c2ccc(Cl)cc2)CC1
 : 0	-37	-0.4	?	4	2%
Cn1cnnc1SCC(=O)Nc1cccc(C(=O)O)c1
 : 5	-6	-1.0	-10%	-1	-5%
COc1cccc(NC(=O)CN(C)CC(=O)c2c(N)n(Cc3ccccc3)c(=O)n(C)c2=O)c1
 : 1	-1	4.0	-17%	5	-8%
CCOc1ccc(CCNC(=O)CCC(=O)c2cccs2)cc1OCC
 : 4	1	6.1	0%	-3	8%
CCN(CC)S(=O)(=O)c1cccc(C(=O)Nc2cccnc2)c1
 : -1	5	0.4	-23%	-4	-1%
Cc1[nH]c(=S)c(C#N)c(-c2ccco2)c1C(=O)N(C)C
 : -2	8	4.6	2%	1	-1%
O=C(NCCCn1ccnc1)c1cn(Cc2ccc(F)cc2)nn1
 : 2	-12	-3.3	8%	-3	3%
O=C(OCCNC(=O)c1ccc2ccccc2n1)c1cccnc1
 : 12	-8	-1.6	-46%[inhibitor]	0	-11%
O=C1CC(Sc2ccc(Cl)cc2)C(=O)N1Cc1ccncc1 (stereo not given)
 : 6	-3	-1.2	-6%	-1	4%
O=C(O)[C@@H]1[C@@H]2C[C@@H]2CN1c1ncccc1[N+](=O)[O-]
 : 1	1	-1.0	-18%[15.4 µM]	11	8%
Cn1c(=O)c(=O)n(C)c2cc(N3CCCCC3)c(NS(=O)(=O)c3ccc([N+](=O)[O-])cc3)cc21
 : -24	1	4.0	25%	-13	-29%
CC(=O)Nc1ccc(NC(=O)C(C)Sc2n[nH]c(-c3ccc(C)cc3)n2)cc1 (stereo not given)
 : 1	-2	-3.1	7%[15.4 µM]	-7	-7%
Cc1ccc2nc(C)c(Cl)c(=O)n2c1
 : 0	3	-0.9	33%	-1	9%
Cc1sc2ncnc(OCC(=O)N3CCN(C(=O)c4ccco4)CC3)c2c1C
 : -14	-9	1.5	1%	4	4%
O=C(O)CCCNc1ccc(S(=O)(=O)Nc2ccccc2C(=O)O)cc1C(=O)O
 : -10	-10	-1.3	-48%	13	6%

# Carrying on:
# Below each SMILES: CtBP-E1A inh	D2 potentiator	D2 ag	gsp ag	Six1-Eya2 blk	gsp antag
CCOc1ccc(S(=O)(=O)N2CCCC(C(=O)NC3CCCC3)C2)cc1 (stereo not given)
 : 10	-10	1.1	-47%[inhibitor]	-3	7%
Cc1cc(NC(=O)Nc2ccc(C)c(C)c2)no1
 : 2	-5	-2.7	-4%[15.4 µM]	1	18%
CS(=O)(=O)c1ccc2nc(NC(=O)c3cccc([N+](=O)[O-])c3)sc2c1
 : .	-17	2.1	?	1	?
O=C(NCc1cccc(C(F)(F)F)c1)c1csc([C@@H]2O[C@H](CO)[C@H](O)[C@H](O)[C@H]2O)n1
 : 2	-5	-4.1	.	-9	.
NC(=O)NCCC1=CCCCC1
 : 9	-3	-4.0	-77%[inhibitor]	1	9%
Cc1cc(NC(=O)CCC(=O)N(Cc2ccccc2)C(C(=O)NC2CCCC2)c2ccco2)no1 (stereo not given)
 : 4	-5	-2.1	2%[15.4 µM]	8	6%
O=C(C1CC(=O)N(c2ccc3c(c2)OCCO3)C1)N1CCCC(C(F)(F)F)C1 (stereo not given)
 : 7	-27	-7.4	1%	0	-1%
CCN1C(=O)/C(=C2\SC(=S)N(NC(=O)c3cccnc3)C2=O)c2ccccc21
 : ?	2	-3.1	26%	?	?
CCNC(=O)NS(=O)(=O)c1cnccc1Nc1cccc(Cl)c1
 : 9	9	0.4	-16%	-2	3%
Cc1ccc(CN(CC(=O)NC2CCCCC2)C(=O)c2csnn2)cc1
 : -2	0	0.1	14%	-5	9%
Cc1ccc(NC(=O)C2(C)CCN2C(=O)Cc2ccc(C(C)(C)C)cc2)cc1C (stereo not given)
 : 4	-3	-5.2	.	0	.
COC(=O)c1cnc(N2CCCN(S(=O)(=O)c3ccccc3)CC2)nc1C(F)(F)F
 : 10	-2	-0.9	-37%[inhibitor]	11	-13%
CCOC(=O)N1CCN(Cc2cn[nH]c2-c2ccc(-c3ccccc3)cc2)CC1
 : 1	-5	0.1	-15%	8	9%
O=[N+]([O-])c1cccc(-c2ccc(CN3CCN(c4ccccc4)CC3)o2)c1
 : -24	-16	3.5	-15%[15.4 µM]	?	0%
C#CCOCCOCCOCCNc1nc(N2CCN(C(=O)CCCCCCCCCCNC(=O)[C@@H]([C@H](C)O)n3cc(C)nn3)CC2)nc(N2CCN(C(=O)CCCCCCCCCCNC(=O)[C@@H]([C@H](C)O)n3cc(C)nn3)CC2)n1
 : 7	-5	0.8	-42%[inhibitor]	3	0%
CN(CC(=O)Nc1ccccc1Br)C(=O)c1cccc(S(=O)(=O)NCc2ccccc2)c1
 : 4	-30	-4.9	1%	-1	-10%

# Assay outcomes from PubChem BioAssay.
